Bioassay records deposited in PubChem by National Center for Advancing Translational Sciences (NCATS).
D2 PAM – Beta-Arrestin HTS for Positive Allosteric Modulators of the Human D2 Dopamine Receptor: Potentiators | potentiation, % (concentration not given with the values) | D(2) dopamine receptor (Homo sapiens), P14416 | 360,000 compounds, 0.23% hits | DiscoveRx D2 beta-arrestin cells, luminescence, 90 min; 100% = 57 uM dopamine signal; active = potentiation of 50% or more; inconclusive = 30% to 50%; inactive = 30% or less;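 note: tested on top of an EC20 dose of dopamine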
Target sequence (P14416 whole entry, looked up): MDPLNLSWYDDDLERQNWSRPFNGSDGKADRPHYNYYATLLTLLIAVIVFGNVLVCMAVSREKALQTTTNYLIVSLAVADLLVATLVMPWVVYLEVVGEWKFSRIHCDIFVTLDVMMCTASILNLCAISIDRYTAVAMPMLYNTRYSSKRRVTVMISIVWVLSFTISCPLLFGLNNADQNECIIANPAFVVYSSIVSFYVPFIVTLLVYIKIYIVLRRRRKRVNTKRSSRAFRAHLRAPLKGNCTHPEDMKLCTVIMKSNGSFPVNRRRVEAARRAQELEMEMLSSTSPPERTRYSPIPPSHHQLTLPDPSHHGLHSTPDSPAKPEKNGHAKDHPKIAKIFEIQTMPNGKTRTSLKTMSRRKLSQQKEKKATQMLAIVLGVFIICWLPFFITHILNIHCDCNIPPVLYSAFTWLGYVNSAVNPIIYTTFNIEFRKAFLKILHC
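PathHunter beta-arrestin assay in DiscoveRx D2 cells. Compounds were added with an EC20 of dopamine (50 nM final) for 90 min at 37 deg C. Luminescence was read 1 h after detection reagent, with 57 uM dopamine as the EC100 control.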
D2 agonist – Beta-Arrestin HTS for Positive Allosteric Modulators of the Human D2 Dopamine Receptor: Agonists | DiscoveRx PathHunter D2 beta-arrestin, luminescence, 90 min; 100% = 57 uM dopamine signal | activation, % (no concentration beside the values) | 360,000 compounds, 0.084% hits | AID 624465, 2012; in the data active = activation above about 40%; inconclusive = about 15% to 40%; inactive = below about 15%; note: compound concentration not given in the record; the text of the record calls up to 30% inactive
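DiscoveRx PathHunter D2 beta-arrestin cells (2,100/well) attached overnight, then compound-stimulated 90 min at 37 C in HBSS/10 mM HEPES/0.1% Tween-20 buffer; beta-galactosidase complementation read by luminescence after 1 h at ambient temperature. Dopamine 57 uM final (EC100) as control.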
PINK1 modulator – A Quantitative High throughput Screen to Identify Chemical Modulators of PINK1 Expression. Potency, µM (titrated, usually from 76.6 µM), without a hit: top-dose activation (PINK1 increase), hits mostly activators. PINK1 immunofluorescence, high-content cytometry, 24 h. 410,000 compounds, 0.2% hits; active = well fitted activation curve with a large enough effect; inconclusive = small, poorly fitted or top-dose-only effect; inactive = flat fitted curve, though single readings scatter; cell line not stated here;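 note: potency is the fitted concentration of half-maximal effect; % of control where 0% means no effect; nearly all actives have a fitted effect of over 65% in size; a mitochondrial uncoupler was the plate control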
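Stable cell line, 250 cells/well, 12 h attachment; compounds pinned at 5 concentrations, 24 h; CCCP control. Fixed with nuclear dye, primary antibodies 12 h at 10 degrees C, secondary plus cell stain; laser-scanning cytometer read.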
TRPML1 ag – qHTS for Agonists of the Human Mucolipin Transient Receptor Potential 1 (TRPML1); Mucolipin-1 (Homo sapiens), Q9GZU1; TRPML1-expressing cells, Ca2+ dye fluorescence, FDSS; host cell line not named in the record; reference of the full effect not given here; activation, % (no concentration beside the values); 410,000 compounds, 0.12% hits; AID 624414, 2012; in the data active = activation above about 50%; inconclusive = about 30% to 50%; inactive = below about 30%; note: 0% is about no effect; the text of the record puts the active cut at 80%
Target sequence (Q9GZU1 whole entry, looked up): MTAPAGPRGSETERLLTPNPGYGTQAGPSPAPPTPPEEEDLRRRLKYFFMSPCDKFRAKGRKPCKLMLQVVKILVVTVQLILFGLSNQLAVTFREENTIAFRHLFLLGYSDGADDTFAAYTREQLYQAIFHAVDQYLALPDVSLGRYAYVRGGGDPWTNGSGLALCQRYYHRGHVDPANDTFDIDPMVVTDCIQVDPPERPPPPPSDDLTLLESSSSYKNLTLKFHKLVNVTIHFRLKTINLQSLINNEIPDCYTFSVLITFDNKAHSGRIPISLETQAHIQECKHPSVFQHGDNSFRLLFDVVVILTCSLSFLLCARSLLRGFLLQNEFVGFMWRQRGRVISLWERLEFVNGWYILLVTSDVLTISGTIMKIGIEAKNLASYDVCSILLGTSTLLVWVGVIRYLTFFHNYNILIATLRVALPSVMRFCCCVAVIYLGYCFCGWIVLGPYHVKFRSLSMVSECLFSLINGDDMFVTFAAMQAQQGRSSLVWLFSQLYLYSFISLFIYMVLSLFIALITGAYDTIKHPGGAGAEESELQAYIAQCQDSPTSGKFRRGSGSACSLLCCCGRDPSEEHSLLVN
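Tet-induced TRPML1-DL cells, 1,500 per well, cultured overnight, were loaded with a no-wash Ca2+ dye for 45–90 min. Calcium fluorescence was recorded on the FDSS for 110 s after compound addition, before the EC80 agonist (4 uM 54-4) was added.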
TRPML1 inh – qHTS for Inhibitors of the Human Mucolipin Transient Receptor Potential 1 (TRPML1); TRPML1-inducible cells, Ca2+ dye fluorescence, FDSS; hits give low values; inhibition of EC80 agonist-evoked calcium signal; activity change, negative = inhibition, % (no concentration beside the values); 390,000 compounds, 0.02% hits; AID 624415, 2012; in the data active means activity change below about -50%; inconclusive means about -30% to -50%; inactive means above about -30%;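 note: stimulus is agonist 54-4 at its EC80 concentration; % is set by controls: 0 for no effect and ±100 for the full control effect; compound concentration not given in the record; the text of the record puts the active cut at -80%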
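TRPML1-DL cells, Tet-induced overnight (~16 h, 37 °C) at 1,500 cells/well, were loaded with Ca8 no-wash dye plus quencher for 45-90 min at room temperature. Compounds were pinned during FDSS kinetic reading; agonist 54-4 at EC80 (4 uM final) then added.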
Six1-Eya2 inh – qHTS Assay for Inhibitors of the Six1/Eya2 Interaction. Homeobox protein SIX1 (Homo sapiens) + Protein phosphatase EYA2 (Homo sapiens), …. AlphaScreen GST-Six1/His-Eya2 binding, biochemical; hits give low values; control for the full effect not named in the record. activity change, % (concentration not given with the values). 360,000 compounds, 0.56% hits. AID 651725, 2012; in the data active = activity change below about -65%; inconclusive = about -30% to -65%; inactive = above about -30%; note: % is set by controls: 0 for no effect and ±100 for the full control effect
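GST-Six1 + His-Eya2 (5X stock: 250/500 nM); Tris pH 8.0, 300 mM NaCl, 0.05% BSA, 0.02% Tween 20; GSH donor/Ni acceptor beads; 1 h 37 °C dark; AlphaScreen readout.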
Active calls of the source: *; ? = inconclusive; / = no result given; & = joins results of further samples; [ ] = remark or other dose. This is a random part of the collection; any-hit rate near 1%.

Values run as follows: D2 PAM, D2 agonist, PINK1 modulator, TRPML1 ag, TRPML1 inh, Six1-Eya2 inh
> COC(=O)c1n[nH]n(-c2ccc(F)c(Cl)c2)c1=O
 : -4, -6.7, -0.8%, -0.5, -13, 9
> O=[N+]([O-])c1ccc([N+](=O)[O-])c(Nc2ccc(N3CCOCC3)cc2)c1
 : -2, -1.4, 1.2%, 1.5, 18, -18
> CCCCCN(CCCCC)C(=O)C(CCC(=O)O)NC(=O)c1ccc(Cl)c(Cl)c1 (stereo unspecified)
 : 12, -3.3, 1.6%&0.3%, -0.2, 23, -3
> COc1ccc(CNc2cc(C)nc3ccc(OC)cc23)cc1
 : -16, -7.0, 11%, 0.3, 18, -12
> CCc1ccc(N(CC)c2ncnc3nc[nH]c23)cc1
 : -2, 1.1, -0.2%, 1.0, 2, 11
> COc1cc(C)ccc1S(=O)(=O)NC(=O)C1(C)CCN1C(=O)c1ccc(C(F)(F)F)nc1C (stereo unspecified)
 : -10, -2.2, 0.5%, 0.1, 10, 5
> CCOc1ccc(/C=C/C(=O)NCc2ccccc2)cc1
 : -16, -8.3, 1.5%, 0.0, 7, 1
> COc1ccc(NC(=O)c2cc(-c3cc(Cl)ccc3OC)n[nH]2)c(OC)c1
 : 18, ?, 1.8%, -0.6, /, 7
> CN(C)c1ccc(S(=O)(=O)NCC(=O)NCC2CCCCC2)cc1[N+](=O)[O-]
 : -5, -1.6, 8.2%, 0.2, 25, -1
> Cc1cccn2c(CN(C)CCC3CCCCO3)c(C(=O)N3CCCCC3)nc12 (stereo unspecified)
 : 5, -1.2, 0.0%, 0.0, 16, 6
> C=CCNC(=O)C1CC(=O)N(c2ccc(OCC(=O)NCc3ccccc3)cc2)C1 (stereo unspecified)
 : 1, -0.1, -0.2%, -0.3, 29, 9
> Cc1csc2nc3ccccc3c(=O)n12
 : 10, -2.7, 2.1%, -0.4, 15, -19
> CCOc1ccc(C(c2c(C)[nH][nH]c2=O)c2c(C)[nH][nH]c2=O)cc1OCC
 : 17, -3.0, 3.8%, 1.8, -5, 0
> CC1(C)CC(=O)C(=Cc2cn(-c3ccccc3)nc2-c2ccc(Cl)cc2)C(=O)C1
 : -7, -1.8, 0.8%, 0.2, 11, -1
> COc1ccc(CN(C)C[C@@H]2OCc3cnnn3CCCC(=O)N([C@H](C)CO)C[C@H]2C)cc1
 : 7, -2.5, 3.2%, -0.4, -9, 6
> COc1ccc(C(=O)CSc2nnc(CNC(=O)c3ccccc3)o2)cc1
 : -9, -0.9, -1.1%, -0.3, 17, 1
> Cc1cc(=O)n2nc(N3CCC(C(=O)Nc4ccc(C(C)C)cc4)CC3)sc2n1
 : /, /, 2.5%, -1.3, -6, /
> Cc1c(Cc2ccccc2)c(=O)oc2c(C)c(OC(C)C(=O)N[C@@H](Cc3ccccc3)C(=O)O)ccc12 (stereo partly specified)
 : 9, 9.7, 1.4%, /, /, -11
> O=C(CSc1nnc2ccccn12)NC(=O)c1ccccc1Cl
 : -4, -2.0, -1.0%, -0.3, 3, -9
> Cc1c(C(=O)NCC2CCCO2)oc2ccccc12 (stereo unspecified)
 : -8, -2.9, 1.8%, -0.1, -12, 4
> Cc1cc(C)n(C(=O)CNC(=O)c2cccc(Cl)c2)n1
 : -3, 1.7, 0.9%, 0.7, -5, -11
> COC(=O)c1sc(C(F)(F)F)c(-c2ccccc2)c1S(=O)(=O)N1CCCC1
 : -9, -2.6, -1.7%, 0.0, -9, 4
> Cc1oc(-c2ccccc2F)nc1CS(=O)(=O)CC(=O)NC(C)CCc1ccccc1 (stereo unspecified)
 : -10, -1.8, -1.7%, 1.2, -19, -4
> CCOC(=O)CCSCC(=O)Nc1nnc(C)s1
 : -3, -4.7, 0.1%, 0.0, -10, 8
> CCCCN(C(=O)c1ccc(-c2ccc([N+](=O)[O-])cc2)o1)c1c(N)n(CC(C)C)c(=O)[nH]c1=O
 : -3, 4.6, 18%, -0.3, 4, 0
> O=C(CC1CCCCC1)Nc1c2c(nn1-c1ccc(F)cc1)CS(=O)(=O)C2
 : 0, -1.0, 5.5%[38.3 µM], 2.3, -15, 0
> Cc1cccc(CN2CCC(CNC(=O)Cn3ncc4c([nH]c5ccccc54)c3=O)CC2)c1
 : -9, -3.0, -1.0%, 0.4, -19, 2
> Cn1nc(C(=O)Nc2cccc(S(=O)(=O)N3CCCC3)c2)c2ccccc2c1=O
 : -2, -1.4, 1.1%, -0.1, 19, -17
> CC(Oc1ccccc1Cl)C(=O)Nc1ccc(S(=O)(=O)N2CCCC2)cc1 (stereo unspecified)
 : -17, -1.4, -3.0%, 1.2, -12, -8
> CCOC(=O)c1c(NC(=O)COC(=O)c2ccc(NC(=O)CC#N)cc2)sc(C(=O)NC)c1C
 : -1, -2.4, ?, -0.5, 1, -3

More compounds:
Compound	D2 PAM	D2 agonist	PINK1 modulator	TRPML1 ag	TRPML1 inh	Six1-Eya2 inh
O=c1oc2ccccc2c(Cl)c1CN1CCCCC1	-22	-9.4	3.9%	1.3	16	6
O=C(COc1ccc(Cl)cc1)Nc1cc(S(=O)(=O)N2CCCCC2)ccc1N1CCCCC1	-5	-4.2	4.4%	-0.6	33	3
O=C(NNc1ccc([N+](=O)[O-])cc1[N+](=O)[O-])C1C2CCCCC21 (stereo unspecified)	-9	5.8	?	1.3	19	-5
CCN(c1ccccc1)S(=O)(=O)c1ccc(Cl)c(C(=O)N(CC2CCCO2)C2CCS(=O)(=O)C2)c1 (stereo unspecified)	4	3.7	-0.3%	0.2	-2	0
c1ccc2sc(-c3ccc4c(c3)OCO4)nc2c1	-12	0.5	-0.3%	2.3	-2	42
CC(=O)c1ccc(N2CCN(C(=O)CNC(=O)c3ccc(Br)o3)CC2)cc1	-6	-0.6	-0.7%	-0.6	4	-2
CCOC(=O)Cn1cnc2c(nnn2-c2ccc(F)cc2)c1=O	-1	-3.5	0.7%	-0.4	-1	1
O=C(CC1SC(=O)N(c2ccccc2)C1=O)Nc1ccc(Cl)cc1 (stereo unspecified)	-18	-7.7	0.5%	-0.6	37	-8
Cc1cccc(C)c1OCC(N)C(C)C (stereo unspecified)	2	-5.2	0.7%	-1.0	2	0
C=CCn1c(=NC(=O)C2CC2)sc2cc(NC(C)=O)ccc21	2	-0.2	2.6%	-1.1	-8	-8
CCc1ccc(C(C)NC(=O)Cn2cnc3c(=O)n(C)c(=O)n(C)c32)cc1 (stereo unspecified)	-2	2.7	-4.8%[38.3 µM]	7.6	5	2
CC1CCN(S(=O)(=O)c2ccc3ccccc3c2)CC1	-11	-1.4	1.1%	3.9	3	6
Cc1cccc(/C=N/n2c(COc3ccccc3)n[nH]c2=S)c1	-10	0.7	1.8%	2.5	-13	-7
CCOC(=O)CNC(=O)CN1C(=O)CC(c2ccco2)Sc2ccccc21 (stereo unspecified)	-2	-1.3	-1.1%	-0.4	-17	6
CCn1cc(C(=O)NCc2ccc(OC)cc2)c(=O)c2ccc(C)nc21	-6	1.2	3.9%	-0.6	-27	-13
c1csc(-c2nc(NCC3CCCO3)c3ccccc3n2)c1 (stereo unspecified)	-2	-3.4	1.1%&0.6%	-0.9&1.2	-3	-3
Cc1ccc(-c2csc(=Nc3ccccc3)n2Cc2ccc3c(c2)OCO3)cc1C	/	/	?	0.7	-9	/
C[C@@H]1CN([C@H](C)CO)S(=O)(=O)c2ccc(C#CC3CCCCC3)cc2O[C@H]1CN(C)C(=O)Cc1ccncc1	-5	-2.4	8.4%	2.1	2	-8
COc1cc(C2/C(=C(\O)c3ccc4c(c3)OCCO4)C(=O)C(=O)N2c2nnc(C)s2)cc(OC)c1OC (stereo unspecified)	-4	-5.2	1.0%	0.8	-11	4
Cc1ccc(S(=O)(=O)N2C(=O)c3cccc4cccc2c34)cc1	-7	-0.1	0.9%	/	/	-2
Cc1ccc(C(O)(C(=O)NNc2ccc3ccccc3n2)c2ccc(C)cc2)cc1	-36&-7	-10&-3.1	11%&7.7%	0.2&3.9	-17&30	6&4
CC(C)CCN1CCN=C1N(C)C	0	1.2	0.7%	1.1	-2	0
CC(C)(O)C#Cc1ccc(N2C(c3ccsc3)=Cc3ccc(F)cc3C2c2c[nH]c3ccccc23)cc1 (stereo unspecified)	/	/	?	0.0	/	1
COC(=O)c1c(C(=O)OC)c(-c2ccccc2)n2c1CCC2	-5	0.7	0.2%[38.3 µM]	-0.5	-10	-7

Arranged by formula weight (low to high): part of the list above.
Compound	D2 PAM	D2 agonist	PINK1 modulator	TRPML1 ag	TRPML1 inh	Six1-Eya2 inh
c1csc(-c2nc(NCC3CCCO3)c3ccccc3n2)c1 (stereo unspecified)	-2	-3.4	1.1%&0.6%	-0.9&1.2	-3	-3
O=[N+]([O-])c1ccc([N+](=O)[O-])c(Nc2ccc(N3CCOCC3)cc2)c1	-2	-1.4	1.2%	1.5	18	-18
Cc1ccc(-c2csc(=Nc3ccccc3)n2Cc2ccc3c(c2)OCO3)cc1C	/	/	?	0.7	-9	/

In the list so far, these have a COOH group:
Compound	D2 PAM	D2 agonist	PINK1 modulator	TRPML1 ag	TRPML1 inh	Six1-Eya2 inh
CCCCCN(CCCCC)C(=O)C(CCC(=O)O)NC(=O)c1ccc(Cl)c(Cl)c1 (stereo unspecified)	12	-3.3	1.6%&0.3%	-0.2	23	-3
Cc1c(Cc2ccccc2)c(=O)oc2c(C)c(OC(C)C(=O)N[C@@H](Cc3ccccc3)C(=O)O)ccc12 (stereo partly specified)	9	9.7	1.4%	/	/	-11
